Vaccinia stage = blocks a specific stage of Vaccinia orthopoxvirus infection, primary screen, cell-based, single point; Vaccinia-infected cells, mCherry/Venus stage reporter fluorescence; stronger effect = lower value; some inactives read as strong as hits; activity change (mCherry), % (test concentration not listed); 89,000 tested, 0.01% active;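 active = mCherry past -33% and 40 or more points under the early reporter, replicates agreeing; inconclusive = past -33% without that gap or agreement; tested in A549 cells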;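 note: scaled between vehicle wells and reference inhibitor wells; 23 nL library stock went into each well; one replicate is shown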
Vaccinia stage Venus = further read-out of Vaccinia stage, marked with its call; activity change (Venus), %; measured here: Venus reporter, other viral stage;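 negative = less Venus signal; first of two replicates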
* hit, by the source's call. Only part of the results is shown; count on the stated rates, not on these rows.

How did C[C@H]1CN([C@@H](C)CO)C(=O)c2cc(NC(=O)Cc3cn(C)c4ccccc34)ccc2O[C@@H]1CN(C)Cc1ccc(C(=O)O)cc1 do in these assays?
Vaccinia stage: 13.5; Vaccinia stage Venus: 5.1

Results for Cc1ccc(S(=O)(=O)N(C)C[C@@H]2Oc3ccc(NC(=O)Cn4cnnn4)cc3C(=O)N([C@H](C)CO)C[C@@H]2C)cc1 ?
Vaccinia stage: 3.3; Vaccinia stage Venus: 3.1

What do the screens show for `CCCN(C)C[C@H]1Oc2cc(C#C[C@H](C)O)ccc2S(=O)(=O)N([C@H](C)CO)C[C@H]1C`?
Vaccinia stage: -9.3; Vaccinia stage Venus: -6.1

Results for C[C@H](CO)N1C[C@H](C)[C@H](CN(C)Cc2ccc(-c3ccccc3)cc2)Oc2ccc(NC(=O)CCN3CCOCC3)cc2CC1=O ?
Vaccinia stage: -15.5; Vaccinia stage Venus: -10.2

How did N#C[C@H]1[C@H](c2ccccc2-c2ccccc2F)[C@@H](CO)N1C(=O)C1CC1 do in these assays?
Vaccinia stage: 15.1; Vaccinia stage Venus: 4.8

What do the screens show for `C[C@@H]1CCCCO[C@H](CN(C)C(=O)Nc2ccccc2)[C@H](C)CN([C@H](C)CO)C(=O)c2cc(NC(=O)CCCN(C)C)ccc2O1`?
Vaccinia stage: 8.2; Vaccinia stage Venus: 3.1

Results for CCCNC(=O)Nc1ccc2c(c1)OC[C@H](C)N(C(C)=O)C[C@H](C)[C@H](OC)CN(C)C2=O ?
Vaccinia stage: 24.4; Vaccinia stage Venus: 24.6

What do the screens show for `O=C(C[C@@H]1CC[C@@H](NS(=O)(=O)c2ccccc2)[C@H](CO)O1)NCc1ccccc1F`?
Vaccinia stage: -3.7; Vaccinia stage Venus: -2.5

How did COc1cccc(NC(=O)N(C)C[C@@H]2OCc3cnnn3CCCC(=O)N([C@@H](C)CO)C[C@H]2C)c1 do in these assays?
Vaccinia stage: 22.5; Vaccinia stage Venus: 15.9

What do the screens show for `CCCN1[C@@H]2c3ccc(-c4cccc(OC)c4)c(=O)n3C[C@@H]2[C@@H](CO)[C@@H]1C(=O)OC`?
Vaccinia stage: -0.3; Vaccinia stage Venus: 5.9

Results for CCN(C[C@@H]1[C@@H](c2ccc(-c3cccnc3)cc2)[C@H](CO)N1C(C)=O)C(C)=O ?
Vaccinia stage: 8.1; Vaccinia stage Venus: 10.4

How did CC(C)NC(=O)N1C[C@H]2[C@@H](c3ccccc31)[C@H](CO)N2C(=O)Nc1ccc(F)cc1 do in these assays?
Vaccinia stage: -1.5; Vaccinia stage Venus: 3.2

What do the screens show for `Cc1ccc(S(=O)(=O)Nc2ccc3c(c2)C(=O)N([C@H](C)CO)C[C@@H](C)[C@H](CN(C)Cc2ccc(C(=O)O)cc2)OCCCC[C@@H](C)O3)cc1`?
Vaccinia stage: 32.2; Vaccinia stage Venus: 19.2

Results for CC(C)NC(=O)N(C)C[C@H]1OCCCC[C@H](C)Oc2ccc(NS(C)(=O)=O)cc2C(=O)N([C@H](C)CO)C[C@@H]1C ?
Vaccinia stage: 28.2; Vaccinia stage Venus: 14.4

What do the screens show for `O=C(C[C@@H]1CC[C@H](NC(=O)C2CC2)[C@@H](CO)O1)NCc1ccccc1Cl`?
Vaccinia stage: 2.2; Vaccinia stage Venus: 2.3

How did CN(C)C(=O)c1ccc(-c2ccc([C@H]3[C@@H](CO)N4CCCCN(C(=O)C5CCCC5)C[C@H]34)cc2)cc1 do in these assays?
Vaccinia stage: 21.9; Vaccinia stage Venus: 3.8

Results for COc1ccc(-c2cn(CC[C@H]3CC[C@@H](NC(=O)c4cnccn4)[C@H](CO)O3)nn2)cc1 ?
Vaccinia stage: 14.3; Vaccinia stage Venus: 14.0

How did C[C@@H]1CCCCO[C@H](CN(C)CC2CCCCC2)[C@H](C)CN([C@H](C)CO)C(=O)c2cc(NC(=O)Cc3ccccc3)ccc2O1 do in these assays?
Vaccinia stage: inconclusive

How did CC(C)NC(=O)N(C)C[C@H]1Oc2ccc(NC(=O)CCN3CCOCC3)cc2CC(=O)N([C@H](C)CO)C[C@H]1C do in these assays?
Vaccinia stage: 17.3; Vaccinia stage Venus: 6.1

What do the screens show for `COCC#Cc1ccc2c(c1)O[C@H](CN(C)C(=O)C1CC1)[C@H](C)CN([C@@H](C)CO)S2(=O)=O`?
Vaccinia stage: 12.1; Vaccinia stage Venus: -4.7

Results for COCC(=O)N1CCCCN2[C@H](CO)[C@@H](c3ccc(-c4ccc(OC)cc4)cc3)[C@@H]2C1 ?
Vaccinia stage: 22.2; Vaccinia stage Venus: 5.4

How did CCC(=O)N(C)C[C@@H]1Oc2cc(C#CC3CCCCC3)ccc2S(=O)(=O)N([C@H](C)CO)C[C@H]1C do in these assays?
Vaccinia stage: -6.0; Vaccinia stage Venus: -9.2

What do the screens show for `O=C(Nc1cc(F)ccc1F)N1CCCCN2[C@H](C1)[C@H](c1ccc(-c3cncnc3)cc1)[C@@H]2CO`?
Vaccinia stage: 14.5; Vaccinia stage Venus: 6.8

How did CO[C@@H]1CN(C)C(=O)c2ccc(NC(=O)C3CCCCC3)cc2OC[C@@H](C)N(C(=O)c2ccccc2)C[C@@H]1C do in these assays?
Vaccinia stage: 18.7; Vaccinia stage Venus: 16.8

How did CCCNC(=O)N(C)C[C@H]1Oc2cc(C#CCN(C)C)ccc2S(=O)(=O)N([C@H](C)CO)C[C@@H]1C do in these assays?
Vaccinia stage: 3.2; Vaccinia stage Venus: 4.8

What do the screens show for `O=C(NCc1ccc(F)cc1)[C@H]1[C@H](CO)[C@H]2Cn3c(cccc3=O)[C@@H]1N2Cc1ccncc1`?
Vaccinia stage: 13.1; Vaccinia stage Venus: 8.6

Results for C[C@H]1CN([C@@H](C)CO)C(=O)c2cccc(NC(=O)Nc3ccc4c(c3)OCO4)c2O[C@@H]1CN(C)Cc1ccccc1 ?
Vaccinia stage: -5.4; Vaccinia stage Venus: -14.0

Results for CC(C)CC#Cc1ccc2c(c1)O[C@@H](CN(C)C(=O)c1cccnc1)[C@H](C)CN([C@@H](C)CO)S2(=O)=O ?
Vaccinia stage: -10.7; Vaccinia stage Venus: -5.9

What do the screens show for `CCCC(=O)Nc1ccc2c(c1)C(=O)N(C)C[C@H](OC)[C@H](C)CN(CC1CCCC1)[C@@H](C)CO2`?
Vaccinia stage: 0.3; Vaccinia stage Venus: -2.9

What do the screens show for `C#CCNC(=O)C1=C[C@@H](C(C)(C)C)C[C@@H](OCCCCO)O1`?
Vaccinia stage: 2.5; Vaccinia stage Venus: 3.3

Random excerpt: 5 entries already listed
What do the screens show for `O=C(NCc1ccc(F)cc1)[C@H]1[C@H](CO)[C@H]2Cn3c(cccc3=O)[C@@H]1N2Cc1ccncc1`?
Vaccinia stage: 13.1; Vaccinia stage Venus: 8.6

What do the screens show for `COCC#Cc1ccc2c(c1)O[C@H](CN(C)C(=O)C1CC1)[C@H](C)CN([C@@H](C)CO)S2(=O)=O`?
Vaccinia stage: 12.1; Vaccinia stage Venus: -4.7

How did CCC(=O)N(C)C[C@@H]1Oc2cc(C#CC3CCCCC3)ccc2S(=O)(=O)N([C@H](C)CO)C[C@H]1C do in these assays?
Vaccinia stage: -6.0; Vaccinia stage Venus: -9.2

How did C[C@H]1CN([C@@H](C)CO)C(=O)c2cc(NC(=O)Cc3cn(C)c4ccccc34)ccc2O[C@@H]1CN(C)Cc1ccc(C(=O)O)cc1 do in these assays?
Vaccinia stage: 13.5; Vaccinia stage Venus: 5.1

What do the screens show for `CCCN1[C@@H]2c3ccc(-c4cccc(OC)c4)c(=O)n3C[C@@H]2[C@@H](CO)[C@@H]1C(=O)OC`?
Vaccinia stage: -0.3; Vaccinia stage Venus: 5.9

(next part)
Results for C[C@H]1CN([C@@H](C)CO)C(=O)c2cc(NC(=O)Nc3ccc(F)cc3)ccc2O[C@@H]1CN(C)Cc1ccc(C(F)(F)F)cc1 ?
Vaccinia stage: 3.3; Vaccinia stage Venus: 1.3

How did C[C@@H]1CN([C@@H](C)CO)C(=O)c2cc(-c3cccc(C(=O)N(C)C)c3)cnc2O[C@@H]1CN(C)S(=O)(=O)c1ccc(F)cc1 do in these assays?
Vaccinia stage: 14.5; Vaccinia stage Venus: 12.8

What do the screens show for `C[C@H](CO)N1C[C@H](C)[C@H](CN(C)Cc2ccccc2)Oc2c(NS(=O)(=O)c3ccccc3)cccc2C1=O`?
Vaccinia stage: 8.6; Vaccinia stage Venus: -3.4

How did Cn1cnc(CCNC(=O)C[C@@H]2CC[C@@H]3[C@H](COC[C@@H](O)CN3C(=O)Nc3ccc(C(F)(F)F)cc3)O2)c1 do in these assays?
Vaccinia stage: inconclusive

Results for COc1ccc2c3c(n(C)c2c1)[C@@H](CO)N(C(=O)Cc1ccccc1)CC31CCN(C(=O)Cc2ccccc2)CC1 ?
Vaccinia stage: inconclusive

How did C[C@H](CO)N1C[C@H](C)[C@@H](CN(C)Cc2cncnc2)Oc2ncc(-c3cncnc3)cc2C1=O do in these assays?
Vaccinia stage: 12.2; Vaccinia stage Venus: 13.7

How did C[C@H](CO)N1C[C@H](C)[C@H](CN(C)Cc2ccncc2)Oc2cc(C#C[C@@H](C)O)ccc2S1(=O)=O do in these assays?
Vaccinia stage: 1.4; Vaccinia stage Venus: -0.8

What do the screens show for `O=S(=O)(c1ccccc1)N1C[C@@H]2[C@H](c3ccccc31)[C@H](CO)N2Cc1ccc(F)cc1`?
Vaccinia stage: -1.7; Vaccinia stage Venus: 4.6

How did O=C(NCC[C@H]1CC[C@@H](NS(=O)(=O)Cc2ccccc2)[C@@H](CO)O1)C1CCCC1 do in these assays?
Vaccinia stage: -0.3; Vaccinia stage Venus: 5.2

How did CO[C@H]1CN(C)C(=O)c2ccc(NS(C)(=O)=O)cc2OC[C@@H](C)N(C(=O)C2CC2)C[C@H]1C do in these assays?
Vaccinia stage: 11.7; Vaccinia stage Venus: 5.1

Results for C[C@@H]1CN([C@H](C)CO)C(=O)c2cccc(NS(=O)(=O)c3cccs3)c2O[C@@H]1CN(C)C(=O)Nc1cccc2ccccc12 ?
Vaccinia stage: 16.4; Vaccinia stage Venus: 15.8

Results for CN(C)C(=O)c1ccc(-c2ccc([C@@H]3[C@H](C#N)N(C(=O)C4CC4)[C@H]3CO)cc2)cc1 ?
Vaccinia stage: 3.5; Vaccinia stage Venus: -3.6

What do the screens show for `CC(=O)N(C)C[C@H]1Oc2cc(/C=C/c3ccccc3)ccc2S(=O)(=O)N([C@@H](C)CO)C[C@@H]1C`?
Vaccinia stage: -14.6; Vaccinia stage Venus: -25.7

Results for O=C(C[C@@H]1C[C@@H]2c3cc(NC(=O)c4ccc5c(c4)OCO5)ccc3O[C@@H]2[C@@H](CO)O1)NCc1ccc(Cl)cc1 ?
Vaccinia stage: -2.2; Vaccinia stage Venus: 8.3

How did C[C@@H]1CN([C@@H](C)CO)C(=O)Cc2cc(NC(=O)C3CCCCC3)ccc2O[C@@H]1CN(C)Cc1ccc(C(=O)Nc2ccccc2N)cc1 do in these assays?
Vaccinia stage: -3.8; Vaccinia stage Venus: -11.1

How did C[C@@H]1CN([C@H](C)CO)C(=O)c2cccc(NS(=O)(=O)c3cccs3)c2O[C@H]1CN(C)Cc1ccc(C(=O)O)cc1 do in these assays?
Vaccinia stage: 8.3; Vaccinia stage Venus: -4.1

How did C[C@H](CO)N1C[C@H](C)[C@@H](CN(C)S(=O)(=O)c2ccc(Cl)cc2)OCc2ccccc2-c2c(n(C)c3ccccc23)C1=O do in these assays?
Vaccinia stage: -15.4; Vaccinia stage Venus: -16.4

What do the screens show for `O=C(NC1CCCC1)[C@H]1[C@H](CO)[C@H]2Cn3c(cccc3=O)[C@H]2N1C(=O)NC1CCCC1`?
Vaccinia stage: -0.1; Vaccinia stage Venus: 4.6

Results for C[C@H](CO)N1C[C@H](C)[C@@H](CN(C)C(=O)Nc2ccccc2)OCCCC[C@H](C)Oc2ccc(NC(=O)NC3CCCCC3)cc2C1=O ?
Vaccinia stage: 11.6; Vaccinia stage Venus: -5.9

How did C[C@@H]1CN([C@H](C)CO)C(=O)Cc2cc(NC(=O)c3ccncc3)ccc2O[C@@H]1CN(C)C(=O)Nc1ccc(C(F)(F)F)cc1 do in these assays?
Vaccinia stage: 0.7; Vaccinia stage Venus: 2.9

What do the screens show for `C[C@H]1CN([C@@H](C)CO)C(=O)c2cccc(NS(=O)(=O)c3ccc(Cl)cc3)c2O[C@@H]1CN(C)Cc1ccc(Cl)c(Cl)c1`?
Vaccinia stage: -13.2; Vaccinia stage Venus: -9.4

What do the screens show for `O=C(Nc1cc(F)ccc1F)N1CC(=O)N2[C@H](C1)[C@@H](c1ccc(-c3ccc(F)cc3)cc1)[C@@H]2CO`?
Vaccinia stage: inconclusive

What do the screens show for `C[C@@H]1CN([C@H](C)CO)C(=O)c2cccc(NC(=O)Nc3ccc4c(c3)OCO4)c2O[C@H]1CN(C)C`?
Vaccinia stage: 7.1; Vaccinia stage Venus: 3.8

What do the screens show for `CNC[C@H]1Oc2ccc(NS(=O)(=O)c3ccc(Cl)cc3)cc2C(=O)N([C@H](C)CO)C[C@H]1C`?
Vaccinia stage: -2.5; Vaccinia stage Venus: -1.6

Results for C=CCOC(=O)C1=C[C@@H](c2ccc(Br)cc2)[C@H](CCCO)[C@@H](OCC)O1 ?
Vaccinia stage: -3.3; Vaccinia stage Venus: -3.8

How did C[C@H]1CN([C@@H](C)CO)C(=O)c2cccc(NC(=O)Nc3cccc4ccccc34)c2O[C@@H]1CN(C)S(=O)(=O)c1cn(C)cn1 do in these assays?
Vaccinia stage: 11.3; Vaccinia stage Venus: 4.9

Results for C[C@@H]1CN([C@H](C)CO)C(=O)c2cc(NS(=O)(=O)c3cn(C)cn3)ccc2O[C@@H](C)CCCCO[C@H]1CN(C)Cc1ccncc1 ?
Vaccinia stage: 18.1; Vaccinia stage Venus: 11.3
